# CCT modulator: cytosolic chaperonin activity modulation | actives 0.3% (n = 360,000) | purified chaperonin ATPase assay, HTRF ADP detection, 30 min | AID 651819 | activity change, % (no concentration beside the values), hits read low; in the data active = activity change below about -30%; note: % is set by controls: 0 for no effect and ±100 for the full control effect
#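 TRiC (40 or 20 nM final, by batch activity) in 30 mM Tris pH 7.4, 100 mM KCl, 5 mM MgCl2, 1 mM DTT was treated with compound at 76 uM single dose, then 10 uM ATP, 30 min at 37 °C. ADP was read by HTRF Transcreener.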
# A549 viability: kills or reduces viability of A549 cells in Nrf2 counter-screen; Potency, µM (series often up to 46 µM), inactives show at the highest dose activity change, negative = cytotoxicity, actives largely listed as inhibitors; AID 504648; actives 0.16% (n = 390,000); A549 ARE-Fluc cells, CellTiter-Fluor viability, 18-24 h; note: potency is the fitted concentration of half-maximal effect; % is set by controls: 0 for no effect and ±100 for the full control effect
#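 Cytotoxicity counterscreen: CellTiter-Fluor fluorescence was measured in A549 ARE_Fluc cells after 18-24 h of compound exposure in a concentration series. The subsequent BugLite luminescent read reports ARE-luciferase activity.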
# HepG2 tox: counter-screen for TGF-b inhibitors: cytotoxicity in HepG2 cells; HepG2 CAGA-GFP viability, ATP luminescence, 18 h; Potency, µM (titrated, usually from 46.1 µM), without a hit: at the highest dose activity change, negative = cytotoxicity, usual class: cytotoxic; actives 0.76% (n = 410,000); AID 588856; note: potency is the fitted concentration of half-maximal effect; some results filed as inactive show a strong effect at the top dose
#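 HepG2 CAGA-GFP cells (1000/well, DMEM with 1% FBS) received compound, then TGF-beta at 500 pg/mL final, and were incubated 18 hours at 37 degrees C. Viability was read by CellTiter-Glo luminescence. Media-only wells were set as complete cell-killing and DMSO as no toxicity.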
# pAkt inh: inhibitors of Akt phosphorylation; activity change, % for hits at 50 µM; actives 0.32% (n = 360,000); AID 651550; Neuro2A IGF-stimulated pAkt S473 HTRF, 20 min; stronger effect = lower value; in the data active = activity change below about -80%; inconclusive = mostly about -51% to -80%; note: % is set by controls: 0 for no effect and ±100 for the full control effect
#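 Single-point screen (50 µM final compound) in Neuro2A cells stimulated 20 min with 6 nM IGF at 37 deg C. After lysis, Ser473-phosphorylated Akt read by HTRF (ex 330 nm, em 615/665 nm) as the 665/615 ratio.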
# MmCpn inh: blocks the Methanococcus maripaludis chaperonin Mm-Cpn | purified Mm-Cpn ATPase, ADP Transcreener TR-FRET | Potency, µM (titrated, usually from 76.9 µM), for inactives: at the highest dose activity, negative = inhibition, actives largely listed as inhibitors | actives 0.031% (n = 330,000); note: potency is the fitted concentration of half-maximal effect; % is set by controls: 0 for no effect and ±100 for the full control effect; nearly all actives have a fitted effect of over 80% in size
#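 Purified archaeal Mm-CPN (25nM final) preincubated 10 min at 37degC with compound, then 10uM ATP for 30 min at 37degC; ADP measured by HTRF Transcreener TR-FRET; buffer 30 mM TRIS pH 7.4, 100mM KCl, 5mM MgCl2, 1mM DTT.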
# The depositor's hits bear a star; i = inactive; ? = inconclusive; . = no result given; & = joins results of further samples; [ ] = remark or other dose. Unless noted, calls come from the whole dose curve; as a rule, active = well fitted curve in the direction sought with a large enough effect; inconclusive = small, poorly fitted or top-dose-only effect, or another doubt; inactive = no such curve, though single readings can be large; an effect the other way counts as inactive or inconclusive. The list is partial, so the mix of outcomes need not match the whole.
SMILES,CCT modulator,A549 viability,HepG2 tox,pAkt inh,MmCpn inh
NC[C@@H](O)c1ccc(O)c(O)c1,.,-2%,.,.,.
CCN1C=C(Cc2cccs2)C2=C(C1)C(c1cccs1)C(C#N)=C(N)O2 (stereo not given),-4.0,-4%,-4%,i,-3%
CC(C)NC[C@H](O)COc1cccc2[nH]ccc12,0.6,-6%,-5%,i,2%
CN1CCCN=C1/C=C/c1cccs1,1.0,2%,6%,i,-1%
C#C[C@]1(O)CC[C@H]2[C@@H]3CCC4=C(CCC(=O)C4)[C@H]3CC[C@@]21C,-2.3,-1%,-11%,.,2%
NNC(=O)c1nc(-c2ccccc2)cc(-c2ccccc2)n1,-0.9,-16%,-6%,i,0%
Nc1[nH]c(=O)ncc1F,-1.0,0%,-4%,i,0%&2%
O=C1C(CCS(=O)c2ccccc2)C(=O)N(c2ccccc2)N1c1ccccc1 (stereo not given),0.2,-2%,3%,i,1%
C#C[C@]1(O)CCC2C3CCC4=CC(=O)CC[C@@H]4C3CC[C@@]21C (stereo not given in full),-1.1,-3%,-7%,i,-1%
O=C(NCC1CCCCN1)c1cc(OCC(F)(F)F)ccc1OCC(F)(F)F (stereo not given),0.3,?,-30%,i,-24%[15.4 µM]
CC(=O)OCC(=O)[C@@]1(O)CC[C@H]2[C@@H]3CCC4=CC(=O)C=C[C@]4(C)[C@H]3[C@@H](O)C[C@@]21C,-0.3,-8%,6%,i,-1%[15.4 µM]
CCCc1nc(C)c2c(=O)[nH]c(-c3cc(S(=O)(=O)N4CCN(CC)CC4)ccc3OCC)nn12,-1.9,-3%,-45%,i,.
O=C1CN(/N=C/c2ccc([N+](=O)[O-])o2)C(=O)N1,-2.4,-23%,-25%,i,-2%
O=C(C[C@H]1C(=O)N(c2ccc(F)c(F)c2)C[C@@H]1Cc1ccccc1)Nc1ccccc1,-3.7,-7%,22%&-31%,i,3%
CC(C)NCC(O)COc1ccc(COCCOC(C)C)cc1 (stereo not given),-0.1,-2%,13%,i,.
C1N2CN3CN1CN(C2)C3,-1.0,0%,4%,i,.

# Already shown: an excerpt of the list.
SMILES,CCT modulator,A549 viability,HepG2 tox,pAkt inh,MmCpn inh
NC[C@@H](O)c1ccc(O)c(O)c1,.,-2%,.,.,.
CCN1C=C(Cc2cccs2)C2=C(C1)C(c1cccs1)C(C#N)=C(N)O2 (stereo not given),-4.0,-4%,-4%,i,-3%
CC(C)NC[C@H](O)COc1cccc2[nH]ccc12,0.6,-6%,-5%,i,2%
CN1CCCN=C1/C=C/c1cccs1,1.0,2%,6%,i,-1%
C#C[C@]1(O)CC[C@H]2[C@@H]3CCC4=C(CCC(=O)C4)[C@H]3CC[C@@]21C,-2.3,-1%,-11%,.,2%
NNC(=O)c1nc(-c2ccccc2)cc(-c2ccccc2)n1,-0.9,-16%,-6%,i,0%
Nc1[nH]c(=O)ncc1F,-1.0,0%,-4%,i,0%&2%
O=C1C(CCS(=O)c2ccccc2)C(=O)N(c2ccccc2)N1c1ccccc1 (stereo not given),0.2,-2%,3%,i,1%
C#C[C@]1(O)CCC2C3CCC4=CC(=O)CC[C@@H]4C3CC[C@@]21C (stereo not given in full),-1.1,-3%,-7%,i,-1%
O=C(NCC1CCCCN1)c1cc(OCC(F)(F)F)ccc1OCC(F)(F)F (stereo not given),0.3,?,-30%,i,-24%[15.4 µM]
CC(=O)OCC(=O)[C@@]1(O)CC[C@H]2[C@@H]3CCC4=CC(=O)C=C[C@]4(C)[C@H]3[C@@H](O)C[C@@]21C,-0.3,-8%,6%,i,-1%[15.4 µM]
CCCc1nc(C)c2c(=O)[nH]c(-c3cc(S(=O)(=O)N4CCN(CC)CC4)ccc3OCC)nn12,-1.9,-3%,-45%,i,.
O=C1CN(/N=C/c2ccc([N+](=O)[O-])o2)C(=O)N1,-2.4,-23%,-25%,i,-2%

# Screens from PubChem BioAssay.
